High-throughput results as filed in PubChem.
Menin MLL FP FL: displaces fluorescein MLL peptide from human menin; Fluorescence polarization, fluorescein-MLL peptide displacement from menin; FP activity change, % at 61.4 µM; 290,000 tested, under 10 active; inconclusive = falling polarisation curve, or a change in total fluorescence; inactive = total fluorescence flat and polarisation flat or rising; no compound was filed as active; the % refers to the polarisation; negative = inhibition;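 note: % of control where 0% means no effect; inhibitors lower the polarisation; unlabelled MLL peptide was the positive control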
gsp antag: antagonists of gsp mutant (McCune-Albright syndrome); gsp-mutant cells, cAMP HTRF, 30 min; control for the full effect not named in the record; Potency, µM (top dose mostly 76.9 µM), for the others: at the highest dose activity change, negative = inhibition, actives largely listed as inhibitors; 340,000 compounds, 0.4% hits; active = falling curve of any shape with a large fitted effect; inconclusive = falling curve, mostly with a smaller effect; inactive = flat or rising curve; cell line not stated here;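 note: intracellular cAMP measured with PDE inhibitor Ro 20-1724 present during compound exposure; potency is the fitted concentration of half-maximal effect; % is set by controls: 0 for no effect and ±100 for the full control effect; nearly all actives have a fitted effect of over 65% in size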
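Measurement of cellular cAMP by homogeneous time-resolved fluorescence following a 30 min compound exposure at 37C. The PDE inhibitor […] was present throughout; the assay buffer was DPBS with 0.05% BSA and 0.005% Tween 20.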
ClpP mod: qHTS Assay for Activators of ClpP; purified B. subtilis ClpP, FRET peptide cleavage, 20 min; ATP-dependent Clp protease proteolytic subunit (Bacillus subtilis (strain 168)), P80244; AID 651965, 2013; Potency, µM (series often up to 57.5 µM), for the others: at the top dose activity change, negative = active; 340,000 compounds, 1.9% hits; active = well fitted falling curve with a large enough effect; inconclusive = small, poorly fitted or top-dose-only effect; inactive = no such curve, though single readings can be large or run the other way; note: potency is the fitted concentration of half-maximal effect; the source files actives as falling curves though it sought activators and does not explain the sign; nearly all actives have a fitted effect of over 65% in size; many hits overshoot -100%
Target sequence (P80244 whole entry, looked up): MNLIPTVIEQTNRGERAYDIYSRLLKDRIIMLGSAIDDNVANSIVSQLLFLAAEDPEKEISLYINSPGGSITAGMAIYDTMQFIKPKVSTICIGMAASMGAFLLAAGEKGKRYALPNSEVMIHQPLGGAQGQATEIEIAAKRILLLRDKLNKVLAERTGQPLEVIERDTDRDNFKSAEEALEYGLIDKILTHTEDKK
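ClpP 10 microg/mL final, pH 8 Tris/KCl buffer with BSA, glycerol, Tween-20; compound pinned in; FRET-FV substrate; RT 20 min; Ex320/Em430; ΔFRET vs ADEP 5.8 microM, DMSO, no enzyme.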
TRPML1 inh: blocks the human TRPML1 channel; Q9GZU1; TRPML1-inducible cells, Ca2+ dye fluorescence, FDSS; active compounds read low; inhibition of EC80 agonist-evoked calcium signal; activity change, negative = inhibition, % (test concentration not listed); 390,000 compounds, 0.02% hits; AID 624415; in the data active means activity change below about -50%; inconclusive means about -30% to -50%; inactive means above about -30%;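 note: stimulus is agonist 54-4 at its EC80 concentration; % is set by controls: 0 for no effect and ±100 for the full control effect; compound concentration not given in the record; the text of the record puts the active cut at -80%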
Target sequence (Q9GZU1 whole entry, looked up): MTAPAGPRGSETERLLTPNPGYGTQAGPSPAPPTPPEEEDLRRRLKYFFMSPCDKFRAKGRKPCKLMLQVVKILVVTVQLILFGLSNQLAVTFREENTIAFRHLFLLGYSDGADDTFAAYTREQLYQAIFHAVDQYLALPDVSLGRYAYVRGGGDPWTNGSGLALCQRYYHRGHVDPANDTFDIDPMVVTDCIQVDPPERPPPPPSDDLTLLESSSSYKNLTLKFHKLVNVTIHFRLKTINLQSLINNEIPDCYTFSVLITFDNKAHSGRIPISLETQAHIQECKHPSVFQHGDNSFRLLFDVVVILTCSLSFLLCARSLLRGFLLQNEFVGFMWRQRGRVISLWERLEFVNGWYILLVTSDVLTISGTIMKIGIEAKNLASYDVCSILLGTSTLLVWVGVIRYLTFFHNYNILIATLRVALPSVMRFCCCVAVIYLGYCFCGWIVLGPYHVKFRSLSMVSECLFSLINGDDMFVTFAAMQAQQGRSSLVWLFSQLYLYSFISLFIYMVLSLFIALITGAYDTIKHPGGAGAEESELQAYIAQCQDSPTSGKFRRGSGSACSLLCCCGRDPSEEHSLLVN
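TRPML1-DL cells, Tet-induced overnight (~16 h, 37 °C) at 1,500 cells/well, were loaded with Ca8 no-wash dye plus quencher for 45-90 min at room temperature. Compounds were pinned during FDSS kinetic reading; agonist 54-4 at EC80 (4 uM final) then added.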
TRPML1 ag: agonists of human TRPML1 channel | activation, % (test concentration not listed) | 410,000 compounds, 0.12% hits | TRPML1-expressing cells, Ca2+ dye fluorescence, FDSS; host cell line not named in the record; reference of the full effect not given here | Q9GZU1; in the data active = activation above about 50%; inconclusive = about 30% to 50%; inactive = below about 30%; note: 0% is about no effect; the text of the record puts the active cut at 80%
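Tetracycline-induced TRPML1-DL cells are seeded and incubated overnight before loading with a no-wash Ca2+ dye and quencher. Agonist activity is taken from the 110 s fluorescence read following compound pin-transfer on an FDSS, before EC80 54-4 challenge.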
gsp ag: activates gsp, the McCune-Albright syndrome mutation. 340,000 compounds, 0.13% hits. Potency, µM (highest dose often 76.9 µM), for inactives: top-dose activation (cAMP increase), hits mostly activators. gsp mutant cells, cAMP HTRF, 30 min; control for the full effect not named in the record; active = well fitted activation curve with a large enough effect; inconclusive = small, poorly fitted or top-dose-only effect, or another doubt; inactive = no such curve, though single readings can be large or run the other way; cell line not stated here;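 note: phosphodiesterase inhibitor Ro 20-1724 added with compounds to block cAMP breakdown; potency is the fitted concentration of half-maximal effect; nearly all actives have a fitted effect of over 60% in size; about a fifth of the inactives were tested at one dose only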
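Cells in DMEM/10% FBS with G418 were pretreated with compounds in DMSO plus […] (300 uM stock) for 30 min at 37C. cAMP was measured by HTRF (cAMP-d2 plus anti-cAMP antibody-K) after 30 min at room temperature.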
* = called active by the depositor; ? = inconclusive; · = no result given; & = joins results of further samples; ! = not active in a repeat; [ ] = dose if it differs, or a comment.

Keys: A = Menin MLL FP FL; B = gsp antag; C = ClpP mod; D = TRPML1 inh; E = TRPML1 ag; F = gsp ag
> C[C@H](CO)N1C[C@H](C)[C@@H](CN(C)Cc2cccnc2)Oc2ncc(-c3cccc(C#N)c3)cc2C1=O
  A = · | B = · | C = -1.0% | D = 5 | E = -0.7 | F = 32%
> CN1c2ccsc2/C(=N/Nc2ccc(F)cc2)CS1(=O)=O
  A = -0.8 | B = -8% | C = · | D = -18 | E = 1.4 | F = -14%[15.4 µM]
> CCOc1ccc(-c2nc(CSCC(=O)NCc3ccc(C)cc3)c(C)o2)cc1
  A = · | B = · | C = ? | D = 8 | E = -0.3 | F = ·
> Cc1ccc(OC(=S)Nc2ccccc2)c(C)c1
  A = 0.2 | B = 8% | C = -0.9% | D = -5 | E = -1.1 | F = 26%
> COC(=O)Cc1[nH]nc2c1C(c1c[nH]c3ccccc13)C(C#N)=C(N)O2 (configuration not stated)
  A = 3.3 | B = 2% | C = -0.2% | D = -4 | E = 0.0 | F = -30%
> CC(C)CC(COCc1ccc(Cl)cc1)N1CCN(C(=O)c2ccc(Cl)cc2Cl)CCC1=O (configuration not stated)
  A = -2.7 | B = -20% | C = -2.1% | D = 61 | E = 1.1 | F = -25%
> COc1cc(OC)c(NC(=O)C(C)n2nc(-c3ccc(C)cc3)c3c(c2=O)CCCC3)cc1Cl (configuration not stated)
  A = · | B = · | C = 0.5% | D = 0 | E = -0.3 | F = ·
> Cc1ccc(S(=O)(=O)N2CCC(C(=O)Nc3nnc(C4CCCC4)s3)CC2)cc1
  A = 5.1 | B = 3% | C = -1.1% | D = -12 | E = -0.6 | F = 11%
> COc1ccc(CNC(=O)CNS(=O)(=O)c2cccs2)cc1
  A = -0.6 | B = 19% | C = · | D = -21 | E = -0.6 | F = -10%[15.4 µM]
> CCOC(=O)c1ccc(-n2c(-c3ccc(C)cc3)c(C)n3c4c(=O)n(C)c(=O)n(C)c4nc23)cc1
  A = · | B = · | C = -1.5% | D = -4 | E = 1.0 | F = ·
> O=C(NNS(=O)(=O)c1ccc(F)cc1)C1CCN(Cc2cccc(F)c2)CC1
  A = -5.8 | B = 7% | C = · | D = -1 | E = 0.9 | F = 11%
> COc1cc2c(cc1OC)C(C1C(=O)CC(C)CC1=O)N(C(=O)CCl)CC2 (configuration not stated)
  A = 5.1 | B = 9% | C = -17% | D = 2 | E = 0.0 | F = -3%
> O=C(CSc1n[nH]c(-c2ccccc2Br)n1)NC(=O)NCc1ccco1
  A = 1.5 | B = 5% | C = -3.1% | D = -7 | E = 2.5 | F = 7%
> Cc1ccc(S(=O)(=O)Cc2ccc(C(=O)NCCCN3CCCC3=O)o2)cc1
  A = 0.9 | B = -1% | C = -1.0% | D = -16 | E = -0.2 | F = 0%
> C[C@@H](NS(=O)(=O)c1ccc(Br)cc1F)[C@@H](O)c1ccccc1
  A = · | B = 1% | C = -0.4% | D = 21 | E = -0.7 | F = ·
> Cc1ccc2oc3c(c(=O)c2c1)C(c1ccc(F)cc1)N(Cc1ccc2c(c1)OCO2)C3=O (configuration not stated)
  A = · | B = · | C = -0.5% | D = 3 | E = 0.1 | F = ·
> Cc1ccc(OCc2cc(C(=O)N(C)Cc3cnn(-c4ccccc4C)c3)no2)cn1
  A = · | B = -13% | C = -0.9% | D = 13 | E = 0.8 | F = 4%[15.4 µM]
> COc1ccc(S(=O)(=O)Nc2ccc(F)c(F)c2)cc1C(=O)N1CCOCC1
  A = -5.4 | B = -2% | C = · | D = -18 | E = 0.6 | F = -2%[15.4 µM]
> Cc1cccc(C)c1NC(=O)CNC(=O)c1ccncc1
  A = · | B = 7% | C = -0.5% | D = -7 | E = -0.2 | F = -36%
> Cc1cc(-c2nnc(SCCC(=O)Nc3ccccc3)o2)no1
  A = · | B = 7% | C = 0.7% | D = -1 | E = -0.3 | F = 0%[15.4 µM]
> Cn1c(-c2ccc(N)cc2)nc2ccccc21
  A = -1.6 | B = 1% | C = 2.8µM*! | D = 22 | E = 0.4&-0.4 | F = -20%
> CCOc1ccc(C(=O)NC(C(=O)N2CCC2)C(C)C)cc1 (configuration not stated)
  A = · | B = 11% | C = 28µM* | D = -5 | E = 0.7 | F = -4%
> COc1ccc(S(=O)(=O)NCCSCc2ccc(Cl)cc2)cc1NC(C)=O
  A = · | B = -4% | C = 2.4% | D = -4 | E = -0.1 | F = -14%
> COc1ccc(NC(=O)Cn2cc(C(=O)C3CC3)c3ccccc32)cc1
  A = -1.2 | B = 5% | C = -0.7% | D = -6&2 | E = 0.7&1.5 | F = -1%[15.4 µM]
> Cc1ccccc1-c1nc(CS(=O)(=O)CC(=O)NCCCN2CC(C)CC(C)C2)c(C)o1 (configuration not stated)
  A = 0.7 | B = 11% | C = -5.8% | D = -2 | E = -0.3 | F = -14%

(further entries)
Keys: A = Menin MLL FP FL; B = gsp antag; C = ClpP mod; D = TRPML1 inh; E = TRPML1 ag; F = gsp ag
> COc1ccc(NC(=O)CCCn2c(=O)c3sccc3n(Cc3cccc(C)c3)c2=O)cc1
  A = -0.6 | B = 10% | C = -1.1% | D = 2 | E = 0.7 | F = -36%[inhibitor]
> Cc1cc(C)n(-c2ccc(Cl)c(C(=O)OCC(=O)N3CCCCC3C)n2)n1 (configuration not stated)
  A = 0.9 | B = 10%[15.4 µM] | C = 3.0% | D = -5 | E = 0.9 | F = 1%
> COc1ccc(-n2ccc(=O)c(C(=O)Nc3ccc(S(=O)(=O)Nc4nccs4)cc3)n2)cc1
  A = -3.6 | B = -10% | C = -0.2% | D = -12 | E = 0.1 | F = 15%
> Cc1ccc(C)c(NC(=O)Cn2c(SCC(=O)NCc3ccccc3)nc3ccccc32)c1
  A = · | B = · | C = 2.3% | D = -20 | E = -0.7 | F = ·
> COc1ccc(N2CCN(C(=O)c3c(C)oc4nc(C)nc(N5CCCC5)c34)CC2)cc1
  A = · | B = · | C = -1.8% | D = -14 | E = 0.5 | F = ·
> CCSc1nc2c(cnn2-c2ccccc2)c(=O)n1N
  A = -0.3 | B = -11% | C = · | D = -26 | E = -0.5 | F = 3%[15.4 µM]
> CS(=O)(=O)Nc1ccc(C(=O)Nc2ccc(S(=O)(=O)Nc3nccs3)cc2)cc1
  A = · | B = 4% | C = -11% | D = 27 | E = 0.4 | F = 9%
> CC(C)(C)NC(=O)c1cc([N+](=O)[O-])ccc1N1CCCCC1
  A = -3.1 | B = -6% | C = -1.2% | D = 3 | E = -0.9 | F = -9%
> COc1ccc(CNC(=O)/C=C/c2cc([N+](=O)[O-])ccc2OC(F)F)cc1OC
  A = -1.4 | B = 9% | C = -2.0% | D = -10 | E = -0.1 | F = -20%
> CC(OC(=O)CCCSc1nc2ccccc2s1)C(=O)NC(N)=O (configuration not stated)
  A = 0.1 | B = -1% | C = · | D = 16 | E = 1.8 | F = 4%[15.4 µM]
> O=C(NCC(=O)N1CCN(Cc2c(F)cccc2Cl)CC1)c1cccc(Cl)c1
  A = · | B = 6% | C = -2.8% | D = -22 | E = 0.2 | F = ?
> COc1ccc2[nH]c(C)c(C(=O)CN(C)C)c2c1
  A = -2.9 | B = 4% | C = -0.5%&-13% | D = -2 | E = 0.3&-0.1 | F = 22%
> Cc1cccc(CCNC(=O)C2CCC(CNc3c(N4CCCC4)c(=O)c3=O)CC2)c1 (configuration not stated)
  A = -1.3 | B = 0% | C = 3.1% | D = 7 | E = -0.6 | F = ?
> COc1ccccc1C(c1nnnn1C(C)(C)C)N1CCN(Cc2ccccc2)CC1 (configuration not stated)
  A = 1.5 | B = 9% | C = -1.2% | D = -16 | E = ? | F = 0%
> Cc1ccc(-n2c(COc3ccccc3)nnc2SCC(=O)O)cc1
  A = · | B = · | C = -1.7% | D = -4 | E = -0.4 | F = -56%[inhibitor]
> CC(C)(CNC(=O)c1cccc(S(=O)(=O)Nc2ccc(SC(F)F)cc2)c1)N1CCOCC1
  A = · | B = -20% | C = 1.5% | D = -10 | E = 0.2 | F = 26%
> C/C(=N\OCC(=O)OCC(=O)NC(=O)c1ccc(OC(F)F)cc1)c1ccc2c(c1)OCO2
  A = · | B = 2% | C = -1.5% | D = 13 | E = 1.3 | F = 11%[15.4 µM]
> COc1ccccc1CCNC(=O)Cc1c(C)c2c(O)cc(C)cc2oc1=O
  A = · | B = · | C = -5.1% | D = 14 | E = 0.0 | F = ·
> FC(F)(F)c1nnc2sc(-c3ccncc3)nn12
  A = 6.1 | B = 5% | C = 0.4% | D = -8 | E = -0.7 | F = 0%
> Cc1nc2c(Br)cc(Br)cc2cc1O
  A = -0.3 | B = ? | C = -2.4% | D = -13 | E = 0.2 | F = 8%
> C=CCC(C(=O)c1ccccc1)[N+](C)(C)CC=C (configuration not stated)
  A = 5.4 | B = 3% | C = · | D = 28 | E = 0.5 | F = ?
> CCOC(=O)N1CCN(C(=O)CN(C)S(=O)(=O)c2ccc(F)cc2)CC1
  A = 7.3 | B = · | C = · | D = 1 | E = -0.2 | F = 27%[15.4 µM]
> COc1ccc2cc(C(=O)N/N=C/c3sc4ccccc4c3O)ccc2c1
  A = ? | B = -27% | C = -18% | D = -6 | E = ? | F = 9%
> O=C(NCCc1ccccc1)c1ccc(NC(=O)C2CC2)cc1
  A = · | B = 2% | C = 2.9% | D = -26 | E = 1.1 | F = ·
> C[C@@H](C(=O)Nc1ccc(OC(F)F)c(Cl)c1)N1C(=O)C2CC=CCC2C1=O (some centres not stated)
  A = · | B = -13% | C = · | D = -14 | E = -0.1 | F = -1%
> COc1ccc(Br)cc1/C=N/NC(=O)CNC(=O)c1cccnc1
  A = -1.3 | B = 2% | C = · | D = 3 | E = -0.1 | F = -25%[15.4 µM]
> O=P(O)(O)c1ccccc1OCCCCCOc1ccccc1P(=O)(O)O
  A = 0.2 | B = 11% | C = 0.5% | D = -3 | E = 0.1 | F = 1%
> CCCC(=O)Nc1nn(CC)c2nc3ccc(C)cc3cc12
  A = 0.6 | B = -3% | C = -18% | D = -4 | E = -0.1 | F = ?

For convenience, 4 of the compounds above:
Keys: A = Menin MLL FP FL; B = gsp antag; C = ClpP mod; D = TRPML1 inh; E = TRPML1 ag; F = gsp ag
> C[C@@H](C(=O)Nc1ccc(OC(F)F)c(Cl)c1)N1C(=O)C2CC=CCC2C1=O (some centres not stated)
  A = · | B = -13% | C = · | D = -14 | E = -0.1 | F = -1%
> COc1ccc(Br)cc1/C=N/NC(=O)CNC(=O)c1cccnc1
  A = -1.3 | B = 2% | C = · | D = 3 | E = -0.1 | F = -25%[15.4 µM]
> O=P(O)(O)c1ccccc1OCCCCCOc1ccccc1P(=O)(O)O
  A = 0.2 | B = 11% | C = 0.5% | D = -3 | E = 0.1 | F = 1%
> CCCC(=O)Nc1nn(CC)c2nc3ccc(C)cc3cc12
  A = 0.6 | B = -3% | C = -18% | D = -4 | E = -0.1 | F = ?
